# eIF4H FP inh = inhibitors of RNA binding by human eIF4H. AID 2012. inhibition, % at 35 µM. eIF4H fluorescence polarization binding assay. 290,000 compounds, 0.94% hits. Q15056;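 active = 50% or more with normal probe brightness, or confirmed in later tests; inconclusive = above 50% with abnormal brightness, or retests that disagree; inactive = below 50% or failed in later tests; about a fifth of its hits are not listed in these tables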;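 also: calls also rest on retests at 20 µM and on dose response follow-up; 0% = protein and probe with vehicle and 100% = probe without protein; strong numbers were not always called active; many hits fall short of the cut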
# Env fusion inh = HIV envelope-mediated fusion inhibition; HeLa-JRFL Env/CEM21 cell fusion, luciferase; inhibition, % at 12.3 µM; 360,000 compounds, 1.1% hits;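 active = mean replicate inhibition score of at least 50 and every replicate individually at or above 50; inconclusive = only one of the two criteria met; inactive = mean below 50 and not all replicates reaching 50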;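 also: 0% = plate neutral controls and 100% = maraviroc near 300 nM; one replicate is shown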
# Yeast UUG start = modulators of start codon recognition fidelity in yeast; 350,000 compounds, 0.13% hits; activity score, % at 18.7 µM; AID 602363; S. cerevisiae UUG-firefly luciferase reporter, luminescence/redox ratio;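 active = replicate mean at a twofold rise or more, about +100% in these data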;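 also: firefly luciferase made from a UUG start codon reports start codon fidelity; reporter light over untreated wells divided by growth signal over untreated wells; some hits fall short of that in this replicate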
# CSC inhib = blocks cancer stem cells | cancer stem cell-like cells viability, luminescence | inhibition, % at 7.5 µM | 300,000 compounds, 1.1% hits;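 active = mean at 75% or more and at least half the replicates too; inconclusive = mean and replicates disagree; tested in HMLE shEcad cells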;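 also: 0% = median of negative and 100% = median of positive control wells; the first replicate is given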
# Rce1 inhib = yeast Ras-converting enzyme inhibition. Q03530. yeast membranes, quenched prenylated peptide cleavage fluorescence. calls only. 290,000 compounds, 0.27% hits. AID 2563;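 active = fall in fluorescence gain of 50% or more versus controls, with final raw signal at or below 3038400; inconclusive = same 50% fall but final raw signal above 3038400; inactive = fall in fluorescence gain under 50%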;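 also: plate controls were neutral control wells for no effect and wells lacking membranes for full effect; tested at 10 µM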
# PABP FP inh = PABP-poly(A) binding inhibition; inhibition, % at 35 µM; AID 2014; PABP-poly(A) RNA binding, fluorescence polarization; P11940; 290,000 compounds, 1% hits;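 active = 50% or more with normal probe brightness, or confirmed in later tests; inconclusive = above 50% with abnormal brightness, or retests that disagree; inactive = below 50% or failed in later tests; about a fifth of its hits are not listed in these tables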;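 also: calls also rest on retests at 20 µM and on dose response follow-up; controls were probe without protein and protein plus probe with vehicle; some compounds called inactive have numbers as strong as hits; many hits fall short of the cut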
# Target sequence (P11940 whole entry, looked up): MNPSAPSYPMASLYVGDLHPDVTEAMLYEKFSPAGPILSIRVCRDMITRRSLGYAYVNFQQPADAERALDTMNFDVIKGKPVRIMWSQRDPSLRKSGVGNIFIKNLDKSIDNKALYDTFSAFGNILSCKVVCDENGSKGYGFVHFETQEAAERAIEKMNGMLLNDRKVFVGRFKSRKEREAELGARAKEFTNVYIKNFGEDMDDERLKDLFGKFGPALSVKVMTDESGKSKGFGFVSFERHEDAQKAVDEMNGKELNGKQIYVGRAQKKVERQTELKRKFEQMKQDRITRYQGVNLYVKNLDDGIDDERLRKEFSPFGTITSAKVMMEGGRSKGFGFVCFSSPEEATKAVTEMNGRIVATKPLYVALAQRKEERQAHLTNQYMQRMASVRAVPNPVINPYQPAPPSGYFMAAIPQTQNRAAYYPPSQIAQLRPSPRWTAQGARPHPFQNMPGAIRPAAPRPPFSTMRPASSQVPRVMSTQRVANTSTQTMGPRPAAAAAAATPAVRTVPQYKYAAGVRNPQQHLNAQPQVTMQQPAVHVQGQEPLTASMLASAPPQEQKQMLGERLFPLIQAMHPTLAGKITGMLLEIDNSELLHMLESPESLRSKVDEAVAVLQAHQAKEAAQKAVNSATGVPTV
# MT1-MMP act inh = blocks activation of human MT1-MMP; HT1080 RFP-PRO-GFP cells, GFP/RFP ratio fluorescence, overnight; percent of plate control window, DMSO zero; 360,000 compounds, 0.061% hits; GFP/RFP ratio change, % at 20 µM; P50281; AID 651647;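 active = GFP/RFP ratio change of at least 30% with cell ATP level not reduced by more than half and red fluorescence within 50% of control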; also: strong numbers were not always called active
#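 Assay system: HT1080 RFP-PRO-GFP cells | Dosing: 20 µM single dose, 1% DMSO | Incubation: Cells overnight before dosing, compound overnight, 37 °C, 5% CO2 | Evaluation: GFP/RFP fluorescence ratio | Control set: DMSO-only wells and HT1080 RFP-L50D-GFP cell wells as references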
# MT1-MMP act inh RFP = further read-out of MT1-MMP act inh, marked with its call; RFP signal change, %; measured here: RFP expression control read;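 0 = vehicle wells; hits needed this value within 50% of zero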
# Numbers without * were called inactive; i = inactive; ? = inconclusive; . = no result given.
molecule	eIF4H FP inh	Env fusion inh	Yeast UUG start	CSC inhib	Rce1 inhib	PABP FP inh	MT1-MMP act inh	MT1-MMP act inh RFP
Cc1ccc(C2CN(c3ccccc3)CC2C(=O)c2ccc(F)cc2)cc1 (configuration not stated)	-3	.	5	3	i	-2	-4	-3
O=C(OCC(=O)N1CCCc2ccccc21)c1cccc(C(F)(F)F)c1	.	-5	-7	-5	i	.	0	1
COc1ccc(OC)c(NC(=S)NCCSc2ccc(C)cc2)c1	-1	1	.	7	i	3	2	-2
FC(F)(F)c1cc(-c2ccco2)nc(NCc2ccc(Cl)cc2)n1	-3	1	-17	32	i	0	-14	-14
COc1ccc(-c2cc(C(F)F)n3ncc(C(=O)N4CCN(C(=O)c5ccco5)CC4)c3n2)cc1	0	22	-1	0	i	5	2	1
Cc1nc2nc(SCc3nc4ccccc4[nH]3)[nH]c2cc1Br	7	7	-21	6	i	3	5	2
COc1ccc(C(=O)N(C)Cc2ccccc2)cc1Br	-18	-19	.	6	i	-4	.	.
NC(=O)[C@@H]1CCCN1Cc1nc(Cc2ccccc2Cl)no1	-2	3	-1	3	i	-8	-3	-3
Cc1cccc(C)c1OCc1cc(C(=O)N2CCC[C@H]2C(N)=O)no1	-12	-14	-9	.	i	-4	3	5
O=C(Cn1c(=O)oc2ccccc21)Nc1ccc(F)c(F)c1	7	21	-9	1	i	2	2	2
CCN1C(=O)/C(=C\N(C)C)S/C1=N\S(=O)(=O)c1ccc(C)cc1	-2	-9	.	-9	i	2	0	0
O=C(OCc1ccc([N+](=O)[O-])cc1)C1CC(=O)N(Cc2ccccc2Cl)C1 (configuration not stated)	-11	12	1	-5	i	-11	-7	0
CCN(Cc1cc(=O)n2cc(Cl)c(C)c(Cl)c2n1)Cc1nc2ccccc2c(=O)[nH]1	5	8	.	-15	i	?	-4	2
CCOC(=O)c1c(SC)nc(SC)c2c1CCC2	0	.	.	7	i	-3	2	4
O=C(CN1C(=O)C2CC=CCC2C1=O)Nc1ccc(F)cc1F (configuration not stated)	.	.	-2	-19	.	.	2	5
Cc1ccccc1Nc1nc(N)nc(COC(=O)CC2CC3CCC2C3)n1 (configuration not stated)	-12	.	-35	-9	i	-4	3	0
COc1ccc(OC)c(C(=O)CSc2nc3c(c(=O)n(C)c(=O)n3C)n2C(C)C)c1	-4	9	-11	.	i	6	7	4
OCCCc1n[nH]c(=S)n1-c1ccccc1	3	-14	.	-17	i	4	1	4
CN1CCN(C(=O)Nc2ccc([N+](=O)[O-])cc2)CC1	-2	-6	-5	-7	i	0	4	0
CCn1ncc(NC(=S)Nc2ccc3c(c2)OCO3)c1C(N)=O	24	-15	.	-2	i	-3	-2	3
COc1ccc(N=CC2=C(O)CCCC2=O)cc1	9	.	-7	5	i	2	5	6
O=C(O)CC/C(=N\Nc1ccc([N+](=O)[O-])cc1)c1ccccc1	-9	3	-11	7	i	-1	-3	-4
COc1ccc2c(c1)CCCN2S(=O)(=O)c1ccc(Cl)cc1	-3	-22	-6	27	i	-1	-2	-7
O=[N+]([O-])c1cc(-c2csc(NCCc3nc4cc(Cl)c(Cl)cc4n3CCCO)n2)ccc1Cl	.	26	-19	-4	i	.	3	-9
COc1ccc(Cc2nnc(Cl)c3ccccc23)cc1OC	-4	27	-6	-3	i	-5	9	6

# Some values from the entries so far.
# Under Env fusion inh, COc1ccc(Cc2nnc(Cl)c3ccccc23)cc1OC shows 27
# Under MT1-MMP act inh RFP, COc1ccc(-c2cc(C(F)F)n3ncc(C(=O)N4CCN(C(=O)c5ccco5)CC4)c3n2)cc1 shows 1

# Next compounds follow.
molecule	eIF4H FP inh	Env fusion inh	Yeast UUG start	CSC inhib	Rce1 inhib	PABP FP inh	MT1-MMP act inh	MT1-MMP act inh RFP
Cc1nn(Cc2noc(C(=O)NCCCn3ccnc3)n2)c(C)c1Br	-11	-9	15	4	.	-2	2	1
Cn1cc(Cl)c(-c2n[nH]c(=S)n2-c2ccccc2)n1	-2	-15	.	-13	i	4	2	6
COc1ccccc1C(=O)N1CCN(Cc2nc3cc([N+](=O)[O-])ccc3n2C)CC1	-5	31	-7	1	i	0	0	1
CCCN(CC(=O)Nc1ccccc1C)C(=O)c1ccc(-c2ccccc2)cc1	-5	.	-5	-2	i	8	-2	-4
COc1ccc(S(=O)(=O)Cc2ccc(C(=O)NCCCN3CCc4ccccc4C3)o2)cc1	-3	7	2	-1	i	14	2	0
O=C(CSCc1ccc(Br)cc1)NCc1ccccn1	-10	-18	-13	-2	i	1	1	5
Cc1nnc(NC(=O)C2CCCO2)s1 (configuration not stated)	3	-32	-18	5	i	-8	0	3
O=C(NCCCO)/C(=C\c1ccco1)NC(=O)c1ccco1	-12	-8	2	-6	i	-8	-2	3
Cc1cccc(NC(=O)CCC(=O)N/N=C/c2cc([N+](=O)[O-])ccc2O)c1	6	23	-15	9	i	-8	3	0
CCOC(=O)c1sc(NC(=O)CSc2nc(-c3ccco3)cc(C(F)(F)F)n2)c(C(=O)OCC)c1C	.	-5	-14	.	.	.	0	2
CC(NC(=O)c1ccc2ccccc2n1)c1ccc(S(N)(=O)=O)cc1 (configuration not stated)	-4	1	-4	7	i	10	-3	-1
COc1cccc(NC(=S)N2CCN(S(=O)(=O)c3ccc(F)cc3)CC2)c1	-4	-4	-16	6	i	-4	-4	-2
CC(CN1CCCCC1)OC(=O)COc1ccc(Cl)cc1 (configuration not stated)	-8	4	3	7	i	-2	-1	4
COc1cc(-c2ccc(NC(C)=O)c(OC)c2)ccc1NC(C)=O	-4	-92	-13	-1	i	-3	3	-5
Cc1ccc(NC(=S)NC2CCN(Cc3ccccc3)CC2)cc1C	-5	-4	.	-11	i	-1	4	0
O=C(CCc1ccc(F)c(F)c1)NC1CCCN(Cc2ccc(Cl)cc2)C1 (configuration not stated)	-2	31	-8	-2	i	-4	1	1
CS(=O)(=O)c1ccc(NC(=O)CCCc2nc3ccccc3c(=O)[nH]2)cc1	.	.	-23	-4	.	.	-3	2
O=C(CSc1ccc(-c2ccco2)nn1)NCc1ccc(Cl)cc1	1	-7	-11	-2	i	-2	-1	5
COc1ccc(CN(CC(=O)NC2CCCC2)C(=O)CCC(=O)Nc2cc(C)on2)cc1	-2	.	-7	-3	i	10	4	2
CCOC(=O)c1c(C=O)c(C)n(Cc2ccccc2)c1C	0	-3	0	2	i	-6	-3	-5
O=C(CC(=O)NN=C1CCCCCC1)NCc1cccnc1	4	4	.	-17	i	-17	-1	6
N#C/C(=C/c1ccc(N2CCCC2)c([N+](=O)[O-])c1)c1nc2ccccc2[nH]1	-9	-74	-21	-5	i	0	6	4
Cc1ccccc1NC(=O)Cn1c(=O)oc2ccccc21	-4	-15	5	-13	i	-10	0	-8
Cc1cccc(Oc2ccc(S(=O)(=O)N3CCCCC3)cc2N)c1	0	19	.	6	i	-8	-7	-23
COc1ccc(C(=O)OCn2nnc3ccccc3c2=O)cc1	-8	6	.	-18	i	-6	0	-4

# Reprinted from the part before: 7 entries, followed by the next part.
molecule	eIF4H FP inh	Env fusion inh	Yeast UUG start	CSC inhib	Rce1 inhib	PABP FP inh	MT1-MMP act inh	MT1-MMP act inh RFP
COc1ccc(CN(CC(=O)NC2CCCC2)C(=O)CCC(=O)Nc2cc(C)on2)cc1	-2	.	-7	-3	i	10	4	2
CCOC(=O)c1c(C=O)c(C)n(Cc2ccccc2)c1C	0	-3	0	2	i	-6	-3	-5
O=C(CC(=O)NN=C1CCCCCC1)NCc1cccnc1	4	4	.	-17	i	-17	-1	6
N#C/C(=C/c1ccc(N2CCCC2)c([N+](=O)[O-])c1)c1nc2ccccc2[nH]1	-9	-74	-21	-5	i	0	6	4
Cc1ccccc1NC(=O)Cn1c(=O)oc2ccccc21	-4	-15	5	-13	i	-10	0	-8
Cc1cccc(Oc2ccc(S(=O)(=O)N3CCCCC3)cc2N)c1	0	19	.	6	i	-8	-7	-23
COc1ccc(C(=O)OCn2nnc3ccccc3c2=O)cc1	-8	6	.	-18	i	-6	0	-4
CC1CCc2nn(CC(=O)N3CCCCCC3)cc2C1 (configuration not stated)	-4	-24	-12	-6	i	-5	4	4
CCOc1ccc2nc(NC(=O)C(NS(=O)(=O)c3cccc4nsnc34)C(C)C)sc2c1 (configuration not stated)	-6	-54	-18	8	i	8	-13	-6
c1ccc(-c2csc3nnc(SCc4ccc5c(c4)OCO5)n23)cc1	2	3	-14	1	i	-10	-7	-5
CC(C)C[C@@H](CN1CCCC1CN1C(=S)NC[C@@H]1Cc1ccc(O)cc1)N1C[C@H](Cc2ccccc2)N(CC2CCCCCC2)C1=S (some centres not stated)	.	?	-10	.	.	.	-3	-9
Cc1nnc(NC(=O)CN2CCN(Cc3ccccc3Cl)CC2)s1	-2	-323	-11	-11	i	7	1	-1
Cc1cccc(C(=O)NNC(=O)CSc2nnc(C(C)C)n2C)c1	-8	5	-18	-1	i	0	-2	2
CCc1nc2c(OCc3ccc(F)c(F)c3)cccn2c1N(C)C(=O)c1cccs1	.	29	-8	.	.	.	-3	-4
O=C(O)c1ccccc1SCCS(=O)(=O)c1ccc(Cl)cc1Cl	8	.	-15	-5	i	4	3	5
COc1ccccc1OCC(=O)Nc1ccccc1C(=O)NCc1cccnc1	2	19	-14	-18	i	27	3	6
O=C(COC(=O)c1ccc2c(c1)OCCO2)NCCc1ccc(F)cc1	.	-13	-23	-4	.	.	3	4
Cc1nn(C)c(C)c1NC(=O)C12CC3CC(CC(C3)C1)C2	-2	-24	.	2	i	7	14	0
COc1ccc(-c2cc(C3CC3)nc3sc(C#N)c(N)c23)cc1	-5	.	0	45	i	-7	-14	-10
O=C(O)/C=C\C(=O)Nc1ccc(N2CCN(c3cccc(Cl)c3)CC2)cc1	4	10	.	42	i	-4	6	5
CS(=O)(=O)c1nc(S(=O)(=O)c2ccc(Cl)cc2)c(NCc2ccccn2)s1	-2	11	.	-14	i	-2	-1	1
COc1cc(NC(=O)Cn2cnc3ccccc3c2=O)c(OC)cc1Cl	0	-2	-35	.	i	5	5	2
Cc1ccc(Cn2c(=O)sc3ccccc3c2=O)cc1	6	.	-11	4	i	11	-5	-5
Cc1c(C(=O)N2CCN(C(=O)c3ccco3)CC2)oc2c(Cl)cccc12	.	-32	-2	-7	i	.	0	-2
COC(=O)c1ccc(S(=O)(=O)N2CCC(C(N)=O)CC2)n1C	-4	-12	-5	-13	i	-4	-3	2
COc1cc(C(=O)NCCNc2nc3cc(C)ccc3cc2C#N)cc(OC)c1OC	14	16	-9	-13	i	6	2	0
CC(C)c1ccc(/C=C2\NC(=O)NC2=O)cc1	4	-11	-5	-15	i	48	2	1
Cc1nn(C)c(C(=O)N/N=C/c2cccnc2)c1Br	0	4	-8	-23	i	9	-1	0

# From PubChem BioAssay

# Compounds were not picked by outcome (roughly 3% active in at least one column).
